VACV Venus inh: inhibitors of vaccinia virus (Venus reporter) | AID 720580 | actives 0.46% (n = 330,000) | Vaccinia virus Venus reporter expression, fluorescence | Potency, µM (doses to about 36.5 µM), inactives show at the top dose activity change, negative = inhibition, hits mostly inhibitors; active means well fitted inhibition curve with a large enough effect; inconclusive means small, poorly fitted or top-dose-only effect; inactive means no such curve, though single readings can be large or run the other way; tested in A549 cells; further: nearly all actives have a fitted effect of over 30% in size; inactives centre near -10
VACV mCherry inh: inhibitors of vaccinia virus infection (mCherry reporter signal); Vaccinia virus mCherry reporter infection, fluorescence; about a quarter of the inactives have no number; Potency, µM (highest dose often 36.5 µM), for inactives: at the highest dose activity change, negative = inhibition, usual class: inhibitors; actives 0.63% (n = 310,000); AID 720579; active = well fitted inhibition curve with a large enough effect; inconclusive = small, poorly fitted or top-dose-only effect; inactive = no such curve, though single readings can be large or run the other way; tested in A549 cells; further: nearly all actives have a fitted effect of over 35% in size; inactives centre near -10
Numbers without * were called inactive; i = inactive; ? = inconclusive; . = not tested or not shown; [ ] = remark or other dose. On the % scale 0 is the no-effect control and ±100 the full control effect; potency means the concentration at half of the fitted maximal effect.

SMILES	VACV Venus inh	VACV mCherry inh
Cc1ccc(S(=O)(=O)N2CCC(C(=O)NCCC3=CCCCC3)CC2)c(C)c1	-17.3%	-27.0%
COc1ccccc1CCC(=O)OCC(=O)Nc1ccc2[nH]c(=O)[nH]c2c1	-13.2%	-4.9%
Cc1ccc2[nH]c3c(=O)n(Cc4ccncc4)cnc3c2c1	-12.2%	-0.4%
CCOC(=O)C1(CCc2ccccc2)CCN(C(=O)CCc2cnn(C)c2)CC1	0.2%	i
COc1cccc(N2C(=O)Nc3ccc(Br)cc3C2(O)C(=O)NCCCN(C)C)c1 (stereo not drawn)	-7.1%	-10.0%
Cc1ccc(S(=O)C(c2ccccc2)c2ccccc2)cc1 (stereo not drawn)	-10.6%	-10.1%
Cc1ccc(C)c(NC(=O)CN(C)C(=O)[C@@H](NC(N)=O)C(C)C)c1	-23.1%	i
CSc1nnc(-c2ccccc2Cl)o1	-11.9%	-6.3%
CCOc1ccc(NC(=S)NNC(=S)Nc2cccc(C(F)(F)F)c2)cc1	?	?
C/C(=N\NC(=O)CCC(=O)O)c1c(-c2ccccc2)c2cc(Br)ccc2[nH]c1=O	-2.1%	-8.2%
CSCC[C@H](N)C(=O)N1CCC(C(=O)N[C@H](C(=O)NCc2ccccc2F)C(C)C)CC1	8.0%	-3.8%
CCC(C)NC(=O)COC(=O)Cc1sc(N)nc1-c1ccc(C)cc1 (stereo not drawn)	-13.1%	-10.3%
CNC(=O)c1ccc(OCc2ccccc2)c(OC)c1	-15.7%	.
CN1CC2=Cc3ccccc3OC23Oc2ccccc2C=C3C1	-27.5%	.
O=[N+]([O-])c1ccc(N2CCNCC2)cc1Sc1nc2ccccc2[nH]1	-26.8%	-25.2%
COc1ccccc1-c1ccc2ncnc(NCc3cccnc3)c2c1	-8.1%	-13.1%
CCCN(CC(=O)Nc1ccccc1C)C(=O)c1oc2ccc(OCC)cc2c1C	-21.1%	-6.4%
Cc1cc(CNC(=O)Cn2nc(C)c([N+](=O)[O-])c2C)c2ccccc2n1	-0.5%	-15.3%
COc1ccccc1N1CCN(C(=O)NCc2ccc(Cl)cc2)CC1	-16.4%	i
Nc1cnn(C2OC(CO)C(O)C2O)c(=O)n1 (stereo not drawn)	0.0%	?
CCn1cc(S(=O)(=O)NCc2ccccc2Br)cn1	-4.0%	-19.3%
COc1ccc(/C=C(/NC(=O)c2ccccc2)C(=O)N2CCC(C)CC2)cc1	-4.8%	-29.6%
Cc1ccc([C@H]2C[C@@H](n3cc(-c4ccc(F)cc4)nn3)[C@H](O)CN2C(=O)C2CCCCC2)cc1	-25.4%	-4.7%
N/C(=N\OC(=O)C12CC3CC(CC(C3)C1)C2)c1ccccn1	-4.7%	-12.0%
CC(=O)NC(c1ccccc1)c1nc(-c2cccnc2)cs1 (stereo not drawn)	4.0%	3.6%

Reprinted at random: 6 entries already listed, in no set order.
SMILES	VACV Venus inh	VACV mCherry inh
N/C(=N\OC(=O)C12CC3CC(CC(C3)C1)C2)c1ccccn1	-4.7%	-12.0%
O=[N+]([O-])c1ccc(N2CCNCC2)cc1Sc1nc2ccccc2[nH]1	-26.8%	-25.2%
Cc1ccc(C)c(NC(=O)CN(C)C(=O)[C@@H](NC(N)=O)C(C)C)c1	-23.1%	i
CCn1cc(S(=O)(=O)NCc2ccccc2Br)cn1	-4.0%	-19.3%
CN1CC2=Cc3ccccc3OC23Oc2ccccc2C=C3C1	-27.5%	.
Cc1ccc(S(=O)C(c2ccccc2)c2ccccc2)cc1 (stereo not drawn)	-10.6%	-10.1%

Further entries:
SMILES	VACV Venus inh	VACV mCherry inh
COc1ccc(C(C(=O)NCc2ccccc2)N(Cc2cccnc2)C(=O)c2snc(C(N)=O)c2N)cc1OC (stereo not drawn)	-11.2%	-15.4%
Cc1cccc(NC(=O)CSc2nc3[nH]ncc3c(=O)[nH]2)c1C	5.6%	-14.8%
CCOC(=O)N1CCC(N2Cc3cccc(C(=O)Nc4ccc(N(CC)CC)cc4C)c3C2=O)CC1	-13.4%	-22.7%
CCCCC1=CC2=CC(=O)C(C)(OC(=O)CC)C(=O)C2=CN1CCc1c[nH]c2ccccc12 (stereo not drawn)	-7.5%	i
COc1ccc(C2=CCC3CCCCN3C2)cc1OC (stereo not drawn)	?	?
COc1ccc(S(=O)(=O)NC(CC(=O)NCc2ccccc2OC)c2ccco2)cc1 (stereo not drawn)	-10.9%	.
Cc1oc(-c2cccs2)nc1CN1CCN(C2CCCC2)C(CCO)C1 (stereo not drawn)	-12.2%	-15.6%
CCOC(=O)c1c(NC(=O)CN2C(=O)c3ccccc3C2=O)sc(Cc2ccc3c(c2)OCO3)c1C	-2.5%	i
COc1cccc(-c2ccc(C#N)c(OC(=O)c3ccc(Cl)cc3)n2)c1	-0.9%	.
O=C(COC(=O)CNC(=O)c1ccco1)Nc1ccc(F)cc1	-5.9%	-7.7%
CCC1CN1P(=O)(N1CCCC1)N1CC1CC (stereo not drawn)	-6.2%	i
Cc1ccc(C(=O)Nc2cccc3cccnc23)cc1Br	-5.2%	i
Cc1noc(NC(=O)c2ccc(Cl)cc2)c1Cl	-17.4%	-22.4%
C/C(N)=C(/C#N)C(=O)CSc1cc(C)c2cc(C)cc(C)c2n1	-20.1%	-15.7%
CCOc1ncccc1C(=O)Nc1ccc(S(=O)(=O)Nc2nc(C)cc(C)n2)cc1	-3.1%	-11.1%
COCCSc1nnc(NC(=O)C2CCCO2)s1 (stereo not drawn)	-3.7%	-5.9%
CCOC(=O)c1sc2ncn(CC(=O)Nc3cc(Cl)ccc3C)c(=O)c2c1C	-2.9%	-8.3%
Cc1c(C#N)c2ccccc2n1CC(=O)NCc1cccnc1	-6.7%	-14.4%
Nc1cc(S(=O)(=O)N2CCOCC2)ccc1Oc1ccc(F)cc1	-0.5%	?
C/C(=N\NC(=O)CSc1nc2ccccc2c(=O)n1-c1ccccc1C)c1cccs1	-7.2%	-11.8%
Cn1cccc1/C=C1\SC(=O)N(CC(=O)Nc2ccc(F)cc2)C1=O	-16.1%	-8.6%
CC(=O)/C=C(\C)Nc1c(C)n(C)n(-c2ccccc2)c1=O	-5.4%	-6.6%
CC1(C(=O)NC2CCCCC2)CCC(=O)N1Cc1cccnc1 (stereo not drawn)	-12.3%	i
O=C1OCCN1P(=O)(c1ccccc1)c1ccccc1	-3.2%	.
COc1ccccc1OCCCC(=O)Nc1ccc2c(c1)OCCO2	-17.1%	i
Carrying on.
SMILES	VACV Venus inh	VACV mCherry inh
O=C(Oc1nsnc1N1CCOCC1)N1CCCCC1	-6.5%	-11.9%
CCOC(=O)N1CCN(c2nc3ccc(C(=O)c4ccccc4)cc3n3cnnc23)CC1	-3.1%[7.34 µM]	i[7.34 µM]
Cc1ccc(C)c(-c2nnc(NC(=O)COc3ccccc3)o2)c1	-13.2%	-18.2%
CCCCCCN1C[C@H](O)[C@@H](n2cc(COC(=O)c3ccccc3)nn2)C[C@@H]1c1ccc(Cl)cc1	-18.3%	-11.9%
CCc1nnc(NC(=O)COC(=O)c2cc(OC)cc(OC)c2)s1	-6.9%	-13.2%
Cc1ccc(C)c(-n2c(-c3csc(C)c3C)n[nH]c2=S)c1	-0.7%	-6.5%
CCOC(=O)C1(C)CCN1C(=O)c1ccc(OC)cc1 (stereo not drawn)	-7.3%	-4.1%
CCOc1ccc(CNC(=O)C2CCCCN2S(=O)(=O)c2ccc(F)cc2)cc1OC (stereo not drawn)	-6.4%	-13.4%
CCN(CC(=O)N1CCCCC1)S(=O)(=O)c1ccccc1	-7.4%	-13.7%
Cc1ccc2cc(NC(=O)C3(C)CCN3CC(C)C)ccc2n1 (stereo not drawn)	-2.2%	-2.2%
Cc1ccc(S(=O)(=O)N2CCCCC2CCNC(=O)C(=O)NCCc2ccco2)cc1 (stereo not drawn)	?	-14.4%
Cc1cc(OCc2cccc(Cl)c2)c(C)cc1CN1CCOCC1	-19.7%	-21.8%
COc1ccc(C(C(=O)NC2CCCCC2)N(CC2CCCO2)C(=O)CNC(=O)c2ccco2)cc1 (stereo not drawn)	-11.6%	-13.8%
O=C(Nc1ccc(OC(F)(F)F)cc1)c1nc2ccccc2nc1N1CCCCC1	-2.6%	-1.3%
CSCCC1NC(=O)C(C(C)=NNC(N)=O)=C1O (stereo not drawn)	-0.5%	-9.7%
CC1Cc2ccccc2N1C(=O)CSc1nnc2sc3ccccc3n12 (stereo not drawn)	-20.9%	-27.4%
CC1=CC(c2ccccc2)NC(=S)N1 (stereo not drawn)	-7.3%	-16.2%
COCCNC(=O)c1ccc(NC(=O)C2(c3ccccc3)CCCC2)cc1	11.4%	-3.2%
COc1ccc(-c2[nH]ncc2CN(C)Cc2c(C)n[nH]c2C)c(OC)c1	0.4%	i
CCOc1ccc(NC(=O)CSc2nc(-c3cccs3)cc(C(F)(F)F)c2C#N)cc1	10.0%	2.6%
CC1=Nn2c(nnc2-c2cccs2)SC1	-10.8%	.
CCc1ccc(OCC(O)CN2CCCC2)cc1 (stereo not drawn)	-9.5%	i
CC1CCC/C(=N\NC(=O)Nc2ccccc2)C1 (stereo not drawn)	3.9%	-9.6%
CCOc1ccc(Oc2ccc(C(F)(F)F)cc2N)cc1	-17.7%	-0.7%
O=C(COC(=O)c1ccc(S(=O)(=O)N2CCCC2)cc1)Nc1cccnc1Cl	-16.1%	i
Further entries:
SMILES	VACV Venus inh	VACV mCherry inh
COc1cc2[nH]c(=S)nc(NCc3cccs3)c2cc1OC	0.7%	i
CC(=O)Nc1ccc(OC(=O)c2cc3cc(Br)ccc3oc2=O)cc1	-4.0%	-13.6%
COc1ccc(NC(=O)C(NC(=O)Cc2cccs2)c2ccccc2)cc1 (stereo not drawn)	-16.7%	-0.9%
CC(C)N1CC(O)=C(c2nc3ccccc3c(=O)[nH]2)C1=N	?	.
CCOc1cc(Cl)c(NC(=O)CC)cc1OCC	-10.4%	-10.0%
COc1ccc(OC)c(NC(=O)CSc2ccccc2)c1	-18.3%	i
O=C(C[n+]1cccc(Br)c1)c1ccc2ccccc2c1	-12.4%	-7.6%
Cc1nc2ccccn2c1C(=O)/C=C/c1ccc(F)cc1	?	.
COc1ccccc1OCCCOc1ccc(C)cc1Br	-5.5%	-12.0%
COCC1CCCN(Cc2nc(-c3ccc4c(c3)OCO4)no2)C1 (stereo not drawn)	-17.5%	i
OC1(c2ccc3c(c2)OCO3)CCN(Cc2ccc(F)cc2)CC1	9.6%	-4.7%
COC(=O)c1ccc([N+](=O)[O-])c(CS(=O)(=O)c2ccc(Cl)cc2)c1	-11.1%	-21.2%
CN(CCO)c1cccc2c1S(=O)(=O)N[C@H](Cc1ccccc1)CO2	-2.7%	i
Cc1ccc(Cc2c(-c3ccc(C#N)cc3)nc3ccc(Cl)cn23)cc1	2.4%	i
CCn1c2ccccc2c2cc(NC(=O)CN3CCCC3)ccc21	0.0%	?
CCC1CCCCN1C(=S)Nc1ccc(SC(F)F)cc1 (stereo not drawn)	-1.5%	-12.5%
Cc1ccc(Nc2nc(-c3c(C)nc4ncccn34)cs2)cc1	?	?
Cc1cccc2c(=O)c(C(=O)NCCCN3CCOCC3)c[nH]c12	-7.5%	-8.7%
Cc1c(CCC(=O)NCCCN2CCCC2=O)c(=O)oc2cc(O)ccc12	0.6%	8.7%
CC(C)=N/N=C1/NC(=O)C(CC(=O)Nc2cc(Cl)ccc2C)S1 (stereo not drawn)	-6.6%	i
COc1ccc(OC)c(/C=C/C(=O)OCC(=O)Nc2cccc(Oc3ccccc3)c2)c1	-2.7%	-9.3%
COc1ccc(NC(=O)c2sc(Cl)nc2-c2ccccc2)cc1	-14.9%	-29.4%
O=C(O)c1ccccc1NS(=O)(=O)c1ccc(NN=Cc2cccc(Cl)c2)c([N+](=O)[O-])c1	-8.2%	i
c1ccc(Nc2nc(Nc3ccccc3)nc(N3CCNCC3)n2)cc1	-31.6%	?
COc1cccc2c1cc1c(=O)n(CC(=O)O)nc(C)n12	-10.7%	-4.7%
Further entries:
SMILES	VACV Venus inh	VACV mCherry inh
CCOC(=O)c1csc(-c2ccc([N+](=O)[O-])cc2)n1	-5.0%	i
C=CCNc1nc(C(=O)OCC(=O)c2ccc(OC)cc2OC)cs1	-19.6%	i
C=CCCCCCCCCCCC/C=C/C(O)COC(C)=O (stereo not drawn)	0.0%	i
Clc1cccc(CNc2ccn3nc(-c4ccco4)cc3n2)c1	-9.9%	4.1%
O=C1OC(CCl)CN1Cc1ccc([N+](=O)[O-])cc1 (stereo not drawn)	15.9%	-3.3%
CC(=O)COc1cc(C)cc2oc(=O)cc(-c3ccccc3)c12	-14.6%	25.4%
CCc1nnc(NS(=O)(=O)c2ccc(N)cc2)s1	-8.1%	-13.8%
COc1ccc(-c2cccc(NC(=O)c3ccco3)c2)nn1	-5.3%	i
Cc1ccc(C(C)(C)NC(=O)C2CCC(=O)N(Cc3ccccc3F)C2)cc1 (stereo not drawn)	-16.0%	i
Cc1cccc(NC(=O)COc2ccccc2C(=O)NC(C)c2ccccc2)c1 (stereo not drawn)	?	-14.5%
CCOC(=O)c1sc2ccccc2c1S(=O)(=O)N1CCN(c2cc(C)ccc2C)CC1	0.8%	-7.5%
O=C(CCn1c(=O)c2cccn2c2cccnc21)N1CCN(c2ccc(Cl)cc2)CC1	-16.5%	-22.6%
CCC(=O)N[C@H]1CC[C@@H](CCn2cc(C3CC3)nn2)O[C@@H]1CO	-12.3%	-1.3%
Clc1cccc(Cl)c1/C=N/Nc1c(Cl)cncc1Cl	-8.1%	-15.3%
Cc1ccc(CCNC(=O)Cn2c(-c3cccs3)cc3ccccc32)cc1	-2.9%	-16.7%
COc1cccc(C(=O)c2ncc(C(F)(F)F)cc2Cl)c1	0.8%	-1.1%

2 of the compounds above, with bars between the fields:
Compound | VACV Venus inh | VACV mCherry inh
Cc1ccc(CCNC(=O)Cn2c(-c3cccs3)cc3ccccc32)cc1 | -2.9% | -16.7%
C=CCNc1nc(C(=O)OCC(=O)c2ccc(OC)cc2OC)cs1 | -19.6% | i
